# MT1-MMP promoter: inhibitors of MT1-MMP promoter transcription, cell-based, luciferase reporter, luminescence (AID 618) | MT1-MMP promoter luciferase reporter cells, luminescence | calls from a first round at 10 µM; hits with a dose series show EC50 in µM | 87,000 tested, 0.62% active;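 active means over half of the reporter light lost at 10 µM or EC50 under 50 µM; inactive means the rest and hits that failed the dose series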;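 further: actives suppress MT1-MMP promoter-driven transcription so potencies describe inhibitors; HT1080 fibrosarcoma cells; overnight exposure; toxic or luciferase-blocking compounds were not removed from the actives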
# Hsc70: Hsc70 inhibitors, probe displacement, primary screen, biochemical, fluorescence polarization (AID 568) | 83,000 tested, under 10 active | displacement, % at 20 µM; hits with a dose series show IC50 in µM | Hsc70 fluorescence polarization, probe displacement; higher % means a stronger effect; strong numbers were not always called active;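 active means displacement above 50% without optical interference and an IC50 on retest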;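 further: ATPase domain with a fluorescein-tagged ATP probe; 0% = vehicle and 100% = excess ADP; read after one hour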
# WNV protease inh: blocks West Nile virus NS2B-NS3 protease activity; P06935; WNV NS2B-NS3 protease, fluorogenic substrate Ex360/Em465; stronger effect = lower value; z-score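 (tested at a level between 10 and 100 µM)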; 65,000 tested, 0.18% active; AID 577;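 active means z-score at -3 or under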;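 further: score is relative to mean and spread of the compound wells of a plate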
# Target sequence (P06935 1371-1501 limits assumed): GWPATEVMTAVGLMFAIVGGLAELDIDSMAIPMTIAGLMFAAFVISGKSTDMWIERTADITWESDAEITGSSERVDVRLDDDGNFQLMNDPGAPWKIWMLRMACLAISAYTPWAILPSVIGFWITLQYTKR
# Target sequence (P06935 1502-1679 limits assumed): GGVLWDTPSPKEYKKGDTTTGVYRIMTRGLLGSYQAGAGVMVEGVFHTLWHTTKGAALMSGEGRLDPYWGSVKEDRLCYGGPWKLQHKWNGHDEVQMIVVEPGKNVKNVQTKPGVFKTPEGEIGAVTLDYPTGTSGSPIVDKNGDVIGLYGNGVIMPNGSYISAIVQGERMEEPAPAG
# An asterisk follows results filed as active; i = inactive; x = not tested or not shown. Not a hit list; 0.87% or so of the library scored in one or more.
molecule,WNV protease inh,MT1-MMP promoter,Hsc70
Cc1csc(SCC(=O)Nc2c(C)n(C)n(-c3ccccc3)c2=O)n1,-0.08,i,7.9%
C=CCNc1oc(COc2ccc(C)cc2)nc1C#N,0.66,i,1.9%
CN(C)S(=O)(=O)c1ccc(C(=O)Nc2ccc(OCC(=O)N3CCOCC3)cc2)cc1,0.37,i,7.7%
O=C(Nc1nc2c(Cl)cccc2s1)c1ccc(Br)o1,0.67,i,2.2%
Brc1ccccc1-c1nnc(COc2ncnc3c2cnn3-c2ccccc2)o1,0.98,i,-8.7%
O=c1c2c(nc3nc(SCc4ccccc4)[nH]n13)CCC2,1,i,-1.5%
O=C(O)CNC1=NCCC1,0.13,i,-0.1%
CC(C)NC(=O)Cn1nnc(-c2ccc(Cl)cc2)n1,-0.46,i,-3.3%
CC(C)C(NS(=O)(=O)c1ccc(Br)s1)C(=O)O (centres undefined),0.05,i,2.0%
Cc1nc(NC(=O)c2cc3c(s2)CCCCC3)sc1C(=O)N(C)C,1.6,i,4.7%
CN1C(=C2C(=O)OC(C)(C)OC2=O)Sc2ccccc21,1.5,i,-3.3%
CCOC(=O)N1CCN(Cc2nc(-c3ccc(C)cc3)no2)CC1,0.74,i,2.6%
CCOCCCNC(=O)CN1CCN(c2ccc(F)cc2)CC1,-0.8,i,-2.7%
CCN(CC)CCNC1=CC(=O)OC12CCCCC2,x,i,3.1%
N#Cc1ccccc1NC(=O)COC(=O)c1ccc(S(=O)(=O)N2CCCC2)cc1,1.2,i,-5.6%
CCN1CCN(C(C(=O)NC2CCCCC2)c2ccc(Cl)cc2)CC1 (centres undefined),x,i,-0.2%
COc1ccc(S(=O)(=O)Nc2ccc(NC(C)=O)cc2)cc1OC,-0.08,i,4.8%
O=C(CSc1nnc(-c2cnccn2)n1Cc1ccco1)c1ccc(Cl)cc1,2.2,i,-3.6%
CCOC(=O)c1ccc(S(=O)(=O)n2c(CN3CCCCC3)nc3ccccc32)cc1,0.18,i,-3.3%
CC1CC=C2C(C#N)=C(N)C(C#N)(C#N)C(c3cccs3)C2C1 (centres undefined),1.6,i,28%
CCN(CC)CCOC(=O)c1c(C)n(C)c2ccc(OC)cc12,-1.3,i,7.0%
COc1ccc(C)cc1NS(=O)(=O)c1ccc(NS(=O)(=O)c2ccc(NC(C)=O)cc2)cc1,0.53,i,-2.8%
Cc1ccnc2c1NC(=O)c1cccnc1N2C1CC1,0.98,i,1.0%
CCN(CC)C(=O)C1=C(C)NC(=S)NC1c1cn(-c2ccccc2)nc1-c1ccc(Cl)cc1 (centres undefined),x,i,-3.2%
Cn1c(=O)c2c(nc(Br)n2Cc2ccc3ccccc3c2)n(C)c1=O,0.04,i,5.4%
C=CCn1c(SCC(=O)Nc2cc3oc4ccccc4c3cc2OC)nnc1-c1cnccn1,-0.4,i,-5.6%
COc1ccc(N2C(=O)C3CC=C(Cl)CC3C2=O)cc1 (centres undefined),x,i,6.1%
O=S(=O)(c1ccc(S(=O)(=O)N2CCN(Cc3ccccc3)CC2)cc1)N1CCOCC1,0.31,i,7.2%
CCOC(=O)c1ccc(S(=O)(=O)N2CCC(C(=O)OCC)CC2)cc1,-0.53,i,-4.7%
Cc1cc(C)c(C#N)c(N2CCOCC2)n1,x,i,1.5%
CCN(CC)C(=O)c1cc(-c2ccccc2OC)on1,0.83,i,1.6%
COc1ccc(NC(=O)N(C2CCCCC2)C(C)c2ccco2)c(OC)c1 (centres undefined),1.5,i,-3.1%
CCOC(=O)N1CCN(C(c2ccc(Cl)cc2)c2sc3nc(C)nn3c2O)CC1 (centres undefined),-1.2,i,11%
CCN(CC)c1nc2c(s1)C(=O)CC(C)(C)C2,x,i,0.3%
Cc1ccc(-n2ncc3c(Nc4c(C)n(C)n(-c5ccccc5)c4=O)ncnc32)c(C)c1,-0.46,i,-0.1%
COCCCn1c(=N)c(C(=O)NCc2ccc3c(c2)OCO3)cc2c(=O)n3ccccc3nc21,-1,i,1.2%
Cc1c(C(=O)O)c2cc(O)ccc2n1-c1ccccc1,0.02,i,-0.7%
O=C(NCc1ccccn1)C1CCC(=O)N1C1CCCC1 (centres undefined),1,i,1.5%
COCC(=O)Nc1nnc(-c2cccs2)s1,-1.7,i,3.4%
CCOC(=O)N1CCN(Cc2nc(N)nc(Nc3ccc(OCC)cc3)n2)CC1,x,i,1.8%
O=C(COc1ccc2oc3c(c2c1)CCCC3)Nc1ccccn1,-1.5,i,-0.2%
Fc1ccc(NCc2cn3ccccc3n2)cc1,0.26,i,0.8%
N#Cc1ccccc1Cn1c(=O)n(Cc2ccc(C(=O)NCc3ccco3)cc2)c(=O)c2ccccc21,-0.54,i,-3.5%
COc1ccc(NC(=O)CSc2nnc(C3CC3)n2-c2ccccc2)cc1,x,i,6.0%
Nc1nc(Nc2cccc(C(F)(F)F)c2)nc(C(F)(F)F)n1,-0.97,i,8.8%
Cc1ccc(S(=O)(=O)CCC(=O)O)cc1C,x,i,1.2%
Cc1ccc2cc(CN(CCN3CCCC3)C(=O)Nc3ccc(F)cc3)c(=O)[nH]c2c1C,0.47,i,1.9%
CC(Oc1ccccc1)C(=O)Nc1ccc(S(=O)(=O)N2CCOCC2)cc1 (centres undefined),1.2,i,1.9%
CCOC(=O)CCc1c(C)nc(SCCCn2c(=O)[nH]c3ccccc32)c(C#N)c1C,0.73,i,1.9%
O=C(NCCCn1ccnc1)c1ccc2c(c1)OCCO2,0.19,i,0.2%
O=C1N=C(N2CCOCC2)CS1,-0.69,i,4.2%
Cc1nc2sccn2c1-c1nc(C2CC2)c(C(=O)c2ccc3c(c2)NC(=O)CO3)s1,-0.11,i,-3.1%
CCC1C(=O)CC(c2ccco2)NC1c1ccco1 (centres undefined),x,i,1.3%
CCn1c(SCC(=O)N2c3ccccc3Sc3ccc(Cl)cc32)nc2c1c(=O)n(C)c(=O)n2C,x,i,-1.6%
O=C(CNS(=O)(=O)c1cccs1)Nc1ccc2c(c1)OCCO2,1.1,i,1.1%
CSc1nsc(SCC(=O)Nc2ccc(C(C)=O)cc2)n1,x,i,-3.2%

# (listing goes on)
molecule,WNV protease inh,MT1-MMP promoter,Hsc70
COc1ccc(C(=O)N2CCSC2=S)cc1OC,-0.96,i,-5.3%
Cc1ccccc1CSCCNC(=O)c1ccc(Cl)c(S(=O)(=O)N2CCOCC2)c1,x,i,-0.6%
Cc1cc(C)c(NC(=O)C2CCCN2CCO)c(C)c1 (centres undefined),0.12,i,1.6%
COCC(=O)NCc1ccc2c(c1)cc(C)n2C,0.06,i,-3.8%
O=C(CSc1nnc(COc2ccccc2)n1Cc1ccco1)c1ccc(F)cc1,-0.72,i,-3.0%
Cc1ccc(OCC(=O)c2c(O)c3ccccc3oc2=O)cc1C,x,i,2.7%
Cc1ccc(OC(C)C(=O)O)cc1C (centres undefined),x,i,5.5%
c1ccc(C2=Nn3c(nnc3-c3cc(-c4ccccc4)n[nH]3)SC2)cc1,-0.0076,i,-2.1%
CCOC(=O)N1CCN(C(=O)CSc2nnc(-c3cc(OC)ccc3OC)o2)CC1,-1.1,i,-0.1%
Cc1cc(C)c(C(N)=O)c(Nc2cccc(Cl)c2)n1,x,i,-6.5%
Cc1nc2c(sc3nc4c(cc32)COC(C)(C)C4)c(=O)n1Cc1ccccc1,x,i,1.7%
COc1ccc(-c2nnc(SCc3cccnc3)o2)cc1,x,i,6.0%
CC(C)C(c1nnnn1C1CCCC1)N1CCCCC1 (centres undefined),x,i,-0.6%
COC(=O)C(C)Sc1nc2c(c(-c3ccc(OC)cc3)c1C#N)-c1ccccc1C2=O (centres undefined),x,i,-0.2%
Cc1ccc2cc3cc(C(=O)NCCCN4CCCCCC4)oc3nc2c1,0.91,i,-9.9%
COc1ccc(S(N)(=O)=O)cc1C(=O)NCC1(N2CCCCC2)CCCCC1,-0.31,i,-1.9%
O=C(NCCN1CCOCC1)c1ccncc1,-0.83,i,1.2%
CCn1c(=N)c(C(=O)OC)cc2c(=O)n3ccccc3nc21,5.1,i,5.7%
O=C(NC1CCCC1)c1cnn2c(C(F)(F)F)cc(-c3ccco3)nc12,-1.1,i,-4.4%
Cc1nc(SCC(=O)Nc2cccc(Cl)c2)n[nH]1,-0.89,i,2.0%
Cc1cccn2c(=O)c(/C=C(\C#N)S(=O)(=O)c3ccccc3)c(N3CCC(C(N)=O)CC3)nc12,x,i,1.6%
CC(=O)Nc1ccc(Nc2ncnc3c2cnn3-c2ccccc2)cc1,3.6,i,-2.1%
O=C(Nc1ccc(F)cc1F)c1ccco1,-0.78,i,-12%
COC(=O)C1CCN(Cc2ccc(C)cc2)CC1,x,i,-0.3%
CN(c1cccc(NC(=O)c2ccccc2N(C)S(C)(=O)=O)c1)S(C)(=O)=O,-0.14,i,-6.3%
COc1ccc(C2CC(c3cccc(OC)c3)n3nc(N)nc3N2)cc1 (centres undefined),-0.64,i,6.9%
Cn1c(=O)c2c(nc(NC3CCCCC3)n2CC(=O)C23CC4CC(CC(C4)C2)C3)n(C)c1=O,-0.59,i,-4.6%
COc1ccc(C2C3=C(CC(C)(C)CC3=O)N(CCN3CCOCC3)C3=C2C(=O)CC(C)(C)C3)cc1,1.4,i,0.1%
O=C(NC1CS(=O)(=O)CC1NCc1ccccc1)c1ccccc1 (centres undefined),-0.6,i,4.9%
CN(Cc1ccccc1)C(=O)c1cc2ccccc2o1,x,i,0.3%
Cc1c(CCC(=O)O)c(=O)oc2cc(O)ccc12,3.7,i,-1.7%
c1cnc(SCCCOc2ccc3ccccc3c2)nc1,x,i,2.5%
Cc1nc(NCCCn2ccnc2)c2oc3ccccc3c2n1,-0.76,i,2.4%
O=C(CC1Nc2ccccc2NC1=O)NC1CCCCC1 (centres undefined),-0.51,i,-0.7%
Cc1cc(NC(=O)Nc2ccc(F)c(Cl)c2)no1,0.34,i,-6.1%
Cc1ccc(N2Cc3ccccc3OC(C)C2=O)cc1 (centres undefined),-1.6,i,2.0%
COc1ccccc1-n1nnnc1SCc1ccccc1,-0.4,i,-1.0%
Cc1ccc(-c2noc(CN3CCN(c4ccccc4F)CC3)n2)cc1,-0.71,i,-2.5%
Cc1cccc(C)c1OCCn1nc(C(=O)O)c2ccccc2c1=O,x,i,0.5%
O=C(c1ccc2c(c1)OCCO2)C1CCN(C(=O)c2ccc(F)cc2)CC1,1.6,i,-1.2%
COc1ccc(NC(=O)c2cccc(S(=O)(=O)N3CCOCC3)c2)cn1,x,i,12%
Clc1ccc2c(NCc3ccco3)ncnc2c1,x,i,0.7%
Cc1nn(CCO)c2c1C(=O)CCC2,-0.33,i,7.6%
Cc1ccc(-c2ccc(OCC(=O)N3CCOCC3)cc2)cc1,0.62,i,-2.1%
O=C(NCc1ccccc1)N1CCC(c2nc3ccccc3[nH]2)CC1,-0.07,i,-4.7%
Cc1ccc(C(=O)OCC(=O)c2ccc(Cl)s2)s1,-0.51,i,-0.1%
Cc1nc(CSc2nnc3scc(-c4ccccc4)n23)cs1,0.28,i,-2.1%
O=C1C(Cl)=C(N2CCN(Cc3ccccc3)CC2)C(=O)N1c1ccccc1,1.4,i,-2.9%

# 5 records picked at random from the list so far, as already listed:
molecule,WNV protease inh,MT1-MMP promoter,Hsc70
Cc1ccc(-c2ccc(OCC(=O)N3CCOCC3)cc2)cc1,0.62,i,-2.1%
Cc1nn(CCO)c2c1C(=O)CCC2,-0.33,i,7.6%
O=C(NCc1ccccc1)N1CCC(c2nc3ccccc3[nH]2)CC1,-0.07,i,-4.7%
Clc1ccc2c(NCc3ccco3)ncnc2c1,x,i,0.7%
Cc1nc(CSc2nnc3scc(-c4ccccc4)n23)cs1,0.28,i,-2.1%

# Later entries:
molecule,WNV protease inh,MT1-MMP promoter,Hsc70
CCOC(=O)N1CCC(NS(=O)(=O)c2ccc3c(c2)OCC(=O)N3)CC1,0.63,i,3.1%
COc1ccc(CNC(=O)c2ccc(NS(=O)(=O)c3c(C)noc3C)cc2)cc1,-1.5,i,-6.0%
CC(C)(C)C(=O)Nc1nc(C2CCCN2S(=O)(=O)c2ccc(Cl)cc2)cs1 (centres undefined),x,i,-0.7%
CC1CN(S(=O)(=O)c2ccc(Cl)c(C(F)(F)F)c2)CC(C)O1 (centres undefined),-1.7,i,-6.4%
Cc1c(NS(=O)(=O)c2cccs2)c(=O)n(-c2ccccc2)n1C,0.32,i,0.4%
COc1ccc(CCn2c(N)c(C(=O)NCc3ccco3)c3nc4ccccc4nc32)cc1OC,0.76,i,-2.0%
CCC(=O)N(c1ccc(F)cc1)C1C=CS(=O)(=O)C1 (centres undefined),-0.32,i,-3.1%
CN1C(=O)N(C)C2(c3ccccc3)N(C)C(=O)NC12c1ccccc1 (centres undefined),1.3,i,3.6%
COCC(=O)Nc1nc2n(n1)C(c1ccc(OC)cc1)CC(c1ccc(OC)cc1)N2 (centres undefined),0.47,i,2.2%

# Source: PubChem BioAssay (several laboratories)
